# TRPV1 PAM – potentiators of human vanilloid receptor 1 (TRPV1); TRPV1-expressing cells, Fluo-8 calcium influx, capsaicin EC20 potentiation; host cell line not named in the record; control for the full effect not named in the record; 320,000 tested, 0.02% active; AID 540277; potentiation, % at 8.33 µM; active means potentiation above 80%; inconclusive means 30% to 80%; inactive means below 30%; note: 0% is about no effect
#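 Cells expressing TRPV1 were dye-loaded with Fluo-8 and read kinetically: 10 s baseline, 3 min after compound (agonist portion), then 2 min after EC20 capsaicin (allosteric enhancer portion). Calcium-bound dye fluorescence at 480/520 nm.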
# TRPML1 agonist – activates the human TRPML1 channel. 410,000 tested, 0.12% active. TRPML1-expressing cells, Ca2+ dye fluorescence, FDSS; host cell line not named in the record; reference of the full effect not given here. activation, % (test concentration not listed). Q9GZU1; in the data active = activation above about 50%; inconclusive = about 30% to 50%; inactive = below about 30%; note: 0% is about no effect; the text of the record puts the active cut at 80%
#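 Cells: TRPML1-DL, 1X Tet inducer, ~16 h at 37 degrees C/5% CO2. Dye: ABD Ca8 no-wash + quencher, 45-90 min RT. Read: 10 s baseline, compound add, 110 s agonist phase; 54-4 EC80 (4uM final), 110 s antagonist phase.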
# CtBP-E1A blk – CtBP/E1A binding inhibition; AlphaScreen GST-E1A/His-CtBP binding, 1536-well; hits give low values; control for the full effect not named in the record; activity change, % (test concentration not listed); 340,000 tested, 0.49% active; in the data active means activity change below about -65%; inconclusive means about -30% to -65%; inactive means above about -30%; note: % is set by controls: 0 for no effect and ±100 for the full control effect; compound concentration not given in the record
#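 GST-E1A and His-tagged CtBP (125 nM each as 5X stock) were preincubated with pin-transferred compound for 2 h at 37 °C in the dark, then glutathione donor and nickel acceptor beads were added for 1 h before AlphaScreen reading.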
# Six1-Eya2 inh – blocks human Six1 binding to Eya2 | Q15475+O00167 | AlphaScreen GST-Six1/His-Eya2 binding, biochemical; hits give low values; control for the full effect not named in the record | activity change, % (concentration not given with the values) | 360,000 tested, 0.56% active | AID 651725; in the data active = activity change below about -65%; inconclusive = about -30% to -65%; inactive = above about -30%; note: % is set by controls: 0 for no effect and ±100 for the full control effect
# Target sequence (O00167 whole entry, looked up): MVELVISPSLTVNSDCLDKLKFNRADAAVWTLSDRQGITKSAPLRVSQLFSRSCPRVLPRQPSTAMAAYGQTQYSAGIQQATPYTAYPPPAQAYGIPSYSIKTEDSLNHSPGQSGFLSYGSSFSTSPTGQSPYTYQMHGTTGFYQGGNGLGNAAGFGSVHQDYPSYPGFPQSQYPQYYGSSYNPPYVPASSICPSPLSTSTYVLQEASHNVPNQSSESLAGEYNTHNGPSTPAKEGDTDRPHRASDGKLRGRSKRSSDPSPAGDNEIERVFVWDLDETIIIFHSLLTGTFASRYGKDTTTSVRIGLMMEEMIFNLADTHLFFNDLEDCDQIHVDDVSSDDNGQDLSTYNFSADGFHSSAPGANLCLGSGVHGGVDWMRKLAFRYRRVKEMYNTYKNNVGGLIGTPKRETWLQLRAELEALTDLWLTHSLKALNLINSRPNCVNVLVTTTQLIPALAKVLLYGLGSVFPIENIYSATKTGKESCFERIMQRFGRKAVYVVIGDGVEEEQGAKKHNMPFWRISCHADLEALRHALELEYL
# Target sequence (Q15475 whole entry, looked up): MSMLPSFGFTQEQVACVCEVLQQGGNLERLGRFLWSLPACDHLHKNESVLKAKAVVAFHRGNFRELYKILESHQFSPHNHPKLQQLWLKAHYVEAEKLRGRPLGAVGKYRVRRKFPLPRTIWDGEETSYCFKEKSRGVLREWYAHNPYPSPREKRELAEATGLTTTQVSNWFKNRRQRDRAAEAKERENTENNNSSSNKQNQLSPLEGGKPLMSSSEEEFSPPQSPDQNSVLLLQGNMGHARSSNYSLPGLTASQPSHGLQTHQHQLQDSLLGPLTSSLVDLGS
#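 AlphaScreen luminescence read after one hour at 37 °C in darkness. Pin-transferred compounds met GST-Six1 and His-Eya2 protein (5X stock 250 nM/500 nM) plus glutathione donor and Ni-chelate acceptor beads (5X, 50 ug/mL).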
# D2 PAM – potentiates the human D2 dopamine receptor allosterically; DiscoveRx D2 beta-arrestin cells, luminescence, 90 min; 100% = 57 uM dopamine signal; P14416; 360,000 tested, 0.23% active; potentiation, % (test concentration not listed); AID 624464; active = potentiation of 50% or more; inconclusive = 30% to 50%; inactive = 30% or less;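 note: compound concentration not given in the record; tested on top of an EC20 dose of dopamine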
#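 D2 cells co-treated with compound plus 50 nM dopamine (EC20) for 90 min at 37 deg C to detect potentiation. Beta-arrestin recruitment was read as enzyme-fragment luminescence after 1 h at ambient temperature. Full response was set by 57 uM dopamine.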
# TRPML1 inh – blocks the human TRPML1 channel; activity change, negative = inhibition, % (test concentration not listed); 390,000 tested, 0.02% active; TRPML1-inducible cells, Ca2+ dye fluorescence, FDSS; hits give low values; inhibition of EC80 agonist-evoked calcium signal; AID 624415; in the data active means activity change below about -50%; inconclusive means about -30% to -50%; inactive means above about -30%;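 note: stimulus is agonist 54-4 at its EC80 concentration; % is set by controls: 0 for no effect and ±100 for the full control effect; compound concentration not given in the record; the text of the record puts the active cut at -80%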
#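 TRPML1-DL cells, Tet-induced overnight (~16 h, 37 °C) at 1,500 cells/well, were loaded with Ca8 no-wash dye plus quencher for 45-90 min at room temperature. Compounds were pinned during FDSS kinetic reading; agonist 54-4 at EC80 (4 uM final) then added.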
# * = called active by the depositor; ? = inconclusive; . = no result given.
SMILES,TRPV1 PAM,TRPML1 agonist,CtBP-E1A blk,Six1-Eya2 inh,D2 PAM,TRPML1 inh
CCOC(=O)Cc1csc(NC(=O)c2cc(-c3ccncc3)nc3ccccc23)n1,2,1.0,19,2,15,-10
COc1cc(C(O)P(=O)(OCC(C)C)c2ccc(N(C)C)cc2)cc(OC)c1OC (centres undefined),8,0.4,-2,0,-5,6
O=C(C1CCCN(S(=O)(=O)Cc2ccccc2)C1)N1CCC(Cc2ccccc2)CC1 (centres undefined),-7,1.6,9,-9,-10,-7
COC(=O)c1cccc(NC(=O)c2cccc([N+](=O)[O-])c2)c1,9,0.5,-1,-7,-11,-6
COc1ccc(OCC(=O)Nc2ccc(Cl)cc2)cc1,14,0.0,5,4,-6,17
Cn1c(SCC(=O)c2cccs2)nnc1-c1ccco1,10,0.3,2,-2,-5,0
CCN(CC(=O)Nc1ccc(C)c(S(=O)(=O)N2CCOCC2)c1)Cc1ccccc1,-7,0.3,-23,-1,-15,-3
O=C(COC(=O)c1ccccc1)NC(=O)NC1CCCC1,?,0.1,0,8,3,7
Cc1ccccc1Cn1c(=O)sc2ccccc2c1=O,24,0.5,23,7,-13,0
Cc1cc([N+](=O)[O-])cc2ncccc12,-6,-0.3,22,-3,-13,8
COC(=O)CNC(c1ccccc1)c1cc(Cl)ccc1NC(=O)c1cccc(Cl)c1 (centres undefined),7,-0.4,9,-11,-4,-21
CCCOC(=O)c1c(NC(=O)/C=C/c2cnn(C)c2C)sc(C(=O)OCC)c1C,-5,2.8,3,5,0,11
Cc1ccccc1C(=O)NNC1CC(=O)N(c2ccc3c(c2)OCCO3)C1=O (centres undefined),-17,-0.3,-10,-1,-8,-18
C/C(=N/NC(=O)c1sc(NS(=O)(=O)c2ccccc2)nc1C)c1ccc(F)cc1,23,0.6,-2,3,0,-7
CN(C)/C=C(\C#N)C(N)=C(C#N)C#N,-1,2.0,5,?,-4,-11
CN(C)S(=O)(=O)c1cccc(NC(=O)c2cccc(S(=O)(=O)N3CCCCC3)c2)c1,-1,0.4,-11,4,-12,36
CC(=O)Nc1nnc(SCc2ccc(F)cc2)s1,-2,0.2,4,5,-7,-5
COc1ccc(CNC(=O)c2cc(SC)ccc2Cl)cc1OC,-17,0.8,.,-3,-8,-1
O=C1c2ccccc2N2C(=O)c3ccccc3C2N1O (centres undefined),3,-0.7,0,-7,-39,15
CC(=O)O[C@H]1C[C@@]2(O)[C@@H](OC(=O)c3ccccc3)C3[C@@](C)([C@@H](O)C[C@H]4OC[C@@]34OC(C)=O)[C@@H](O)[C@H](OC(C)=O)C(=C1C)C2(C)C (some centres undefined),3,.,7,1,-21,.

# Copied from the entries so far for reference:
SMILES,TRPV1 PAM,TRPML1 agonist,CtBP-E1A blk,Six1-Eya2 inh,D2 PAM,TRPML1 inh
CCOC(=O)Cc1csc(NC(=O)c2cc(-c3ccncc3)nc3ccccc23)n1,2,1.0,19,2,15,-10
COc1cc(C(O)P(=O)(OCC(C)C)c2ccc(N(C)C)cc2)cc(OC)c1OC (centres undefined),8,0.4,-2,0,-5,6
O=C(C1CCCN(S(=O)(=O)Cc2ccccc2)C1)N1CCC(Cc2ccccc2)CC1 (centres undefined),-7,1.6,9,-9,-10,-7
COC(=O)c1cccc(NC(=O)c2cccc([N+](=O)[O-])c2)c1,9,0.5,-1,-7,-11,-6
COc1ccc(OCC(=O)Nc2ccc(Cl)cc2)cc1,14,0.0,5,4,-6,17
Cn1c(SCC(=O)c2cccs2)nnc1-c1ccco1,10,0.3,2,-2,-5,0
CCN(CC(=O)Nc1ccc(C)c(S(=O)(=O)N2CCOCC2)c1)Cc1ccccc1,-7,0.3,-23,-1,-15,-3
O=C(COC(=O)c1ccccc1)NC(=O)NC1CCCC1,?,0.1,0,8,3,7
Cc1ccccc1Cn1c(=O)sc2ccccc2c1=O,24,0.5,23,7,-13,0
Cc1cc([N+](=O)[O-])cc2ncccc12,-6,-0.3,22,-3,-13,8
COC(=O)CNC(c1ccccc1)c1cc(Cl)ccc1NC(=O)c1cccc(Cl)c1 (centres undefined),7,-0.4,9,-11,-4,-21
CCCOC(=O)c1c(NC(=O)/C=C/c2cnn(C)c2C)sc(C(=O)OCC)c1C,-5,2.8,3,5,0,11
Cc1ccccc1C(=O)NNC1CC(=O)N(c2ccc3c(c2)OCCO3)C1=O (centres undefined),-17,-0.3,-10,-1,-8,-18
C/C(=N/NC(=O)c1sc(NS(=O)(=O)c2ccccc2)nc1C)c1ccc(F)cc1,23,0.6,-2,3,0,-7
CN(C)/C=C(\C#N)C(N)=C(C#N)C#N,-1,2.0,5,?,-4,-11
CN(C)S(=O)(=O)c1cccc(NC(=O)c2cccc(S(=O)(=O)N3CCCCC3)c2)c1,-1,0.4,-11,4,-12,36
CC(=O)Nc1nnc(SCc2ccc(F)cc2)s1,-2,0.2,4,5,-7,-5
COc1ccc(CNC(=O)c2cc(SC)ccc2Cl)cc1OC,-17,0.8,.,-3,-8,-1
O=C1c2ccccc2N2C(=O)c3ccccc3C2N1O (centres undefined),3,-0.7,0,-7,-39,15

# Additional structures.
SMILES,TRPV1 PAM,TRPML1 agonist,CtBP-E1A blk,Six1-Eya2 inh,D2 PAM,TRPML1 inh
CCN1CCN(c2ccc(NC(=O)c3cc(OC)c(OC)c(OC)c3)cc2)CC1,-3,-0.1,10,-4,-1,27
CC1=NN(c2ccc(Cl)cc2)C(=O)C1,23,-0.4,6,-9,-8,-5
Cc1ccc2nc(SCC(=O)Nc3ccc(C)c(Cl)c3)nc(=O)n2c1,-6,0.6,1,-3,-8,8
COc1ccccc1N1C(=O)Cc2ccccc2C1=O,-4,1.2,-7,0,1,-4
COc1nc(-c2ccccc2)nnc1-c1ccccc1,-11,3.3,10,18,-13,59
CC1CCN(C(=O)CSC2=NS(=O)(=O)c3cc(F)ccc3N2)CC1,15,1.4,-5,4,-11,-21
O=C(NCC1COc2ccccc2O1)c1ccc(Br)s1 (centres undefined),16,2.0,15,21,-38,-9
OC1(c2cccc(C(F)(F)F)c2)CCN(Cc2nnnn2Cc2ccccc2)CC1,-7,-0.8,6,0,-9,-3
S=C(NCc1ccccc1)NNc1ccccc1,-8,0.1,2,-2,-4,41
COCCCN1C(=O)C(=O)/C(=C(/O)c2ccc(S(=O)(=O)N3CCOCC3)cc2)C1c1ccc(F)cc1 (centres undefined),2,0.0,6,1,-6,29
N#CCCN(C1CCCCC1)S(=O)(=O)c1cccc2nsnc12,-1,0.1,-4,-9,0,38
Cc1cc(C)nc(NS(=O)(=O)c2ccc(NC(=O)Cn3c(=O)oc4ccccc43)cc2)n1,-4,-0.5,4,-6,-4,3
Cc1onc(-c2ccccc2)c1C(=O)NCc1cccnc1,5,1.0,1,8,12,-9
O=c1[nH]c(SCc2ccccc2Cl)nc2c1CCCC2,8,4.4,5,4,-2,17
COc1cc(NC(=O)[C@H]2CSCN2C(=O)[C@@H]2CCC(=O)N2)cc(OC)c1OC,29,-0.7,0,18,-13,-1
Cc1cc(C(=O)NCCCc2ccccc2)no1,-8,-0.1,7,6,-7,-3
C[C@@H]1CN([C@H](C)CO)C(=O)CCCn2nncc2CO[C@H]1CN(C)C(=O)c1ccc2ccn(C)c2c1,.,1.1,0,10,4,3
Cc1ccccc1/C(N)=N/O,1,-0.3,16,7,-24,-8
CCN(C(=O)CSc1nnc(NCc2ccccc2)s1)C1CCS(=O)(=O)C1 (centres undefined),-4,0.0,.,-3,-10,-18
Cc1ccccc1-n1c(=O)n(Cc2ccccc2)c(=O)c2[nH]cnc21,19,-0.6,-3,-2,-19,23
Cc1ccc(C(=O)NNC(=O)C2CCN(S(=O)(=O)c3ccc(Cl)cc3)CC2)cc1,0,0.9,-14,6,-7,-8
Cc1ccccc1-c1cnc(C(O)c2c(C)ccc3ccccc23)[nH]1 (centres undefined),.,-0.2,-27,-7,-13,.
COc1cc(/C=N/n2c(-c3cc(C)[nH]n3)n[nH]c2=S)cc(OC)c1OC,11,0.1,2,9,-19,-21
O=C(NCCN1CCOCC1)c1cc(-c2ccccc2Cl)nc2ccccc12,2,0.6,-2,-2,-29,4
C/C(=N\Oc1cccc(F)n1)c1ccc(Cl)cc1Cl,7,1.3,25,20,-2,-2
CC1=[N+]([O-])C(C)(C)CC(C)(C)c2ccccc21,?,0.3,4,6,-8,-16
C#Cc1ccc([C@H]2C=C(C(=O)N3CCN(Cc4ccc5c(c4)OCO5)CC3)O[C@@H](OCc3ccc(CO)cc3)C2)cc1,23,0.4,-19,-15,-5,12
CC(=O)Nc1ccc(C(=O)OCc2ccc(F)cc2)cc1,-8,0.6,0,-1,-3,-2
CC1(C)OC(=O)N(Cc2ccco2)C1(C)O (centres undefined),4,15,0,4,-6,6
COc1ccc(C(C(=O)NC(C)(C)C)N(Cc2ccccc2)C(=O)CCC(=O)Nc2cc(C)on2)cc1 (centres undefined),0,-1.0,.,1,-6,3
Cc1oc(-c2ccc(Cl)cc2)nc1CS(=O)CC(=O)NCCN1CCCCCC1 (centres undefined),11,0.1,.,-3,-11,6
Cc1cc2n(n1)C(c1c[nH]c3ccccc13)Nc1ccccc1-2 (centres undefined),5,0.1,-24,-6,-10,8
O=C(c1cc(COc2ccc3ncccc3c2)on1)N1CCCCCC1,-2,-0.2,9,1,-7,5
COc1ccc(-c2nn(-c3ccccc3C)cc2CNCc2cccnc2)cc1F,-5,-1.2,-3,-5,-8,1
COc1ccc2cc(OC)c(C(=O)N3CCOCC3)cc2c1,-4,2.5,6,3,2,9
Cc1cc(F)ccc1S(=O)(=O)N(CC(=O)N1CCOCC1)CC(=O)N1CCOCC1,.,0.6,20,15,-5,-5

# High-throughput results as filed in PubChem.
